Bioassay records from PubChem BioAssay.
CBX7 inh: blocks human CBX7 binding to H3K27me3 peptide; 66,000 compounds, 1.1% hits; normalised signal (fraction of DMSO) (no concentration beside the values); AlphaScreen His6-CBX7 / biotin-H3K27me3 peptide binding; stronger effect = lower value; in the data active = normalised signal below about 0.5;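 also: 100 nL library stock added to about 20 µL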
Target sequence (O95931 whole entry, looked up): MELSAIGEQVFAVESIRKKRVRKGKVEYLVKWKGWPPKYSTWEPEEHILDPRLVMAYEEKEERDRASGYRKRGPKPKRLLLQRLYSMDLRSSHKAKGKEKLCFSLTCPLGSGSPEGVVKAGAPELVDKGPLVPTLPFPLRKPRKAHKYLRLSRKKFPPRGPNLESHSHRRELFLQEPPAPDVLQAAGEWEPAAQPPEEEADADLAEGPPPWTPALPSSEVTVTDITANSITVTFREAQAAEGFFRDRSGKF
CBX7 inh z-score: recorded beside CBX7 inh, whose call it bears; z-score; measured here: z-score of CBX7 signal; some inactives read as strong as hits; reference of the scale not given here;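 same signal on another scale; lower means less binding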
Starred values were filed as active, the others as inactive; & = joins results of further samples.

SMILES	CBX7 inh	CBX7 inh z-score
COc1cccc(Cn2cc(S(=O)(=O)c3ccccc3)c(=O)c3cc(F)ccc32)c1	1.06	1.53
c1cc(-c2nnc3n2CCCCC3)ccn1	1.05	1.6
Cc1cccc(-c2noc(CN(C(=O)COc3ccc(C)c(C)c3)C(C)C)n2)c1	1	0.0386
O=C(Nc1nc(-c2nc3ccccc3s2)cs1)c1sc2ccccc2c1Cl	1.23	2.58
COCCNc1ncnc2c1c(-c1ccccc1)cn2-c1ccc(C)cc1	1.08	2.09
COc1ccc(C(=O)Nc2cccc(-c3nc4ccccc4[nH]3)c2)cc1OC	0.758	-4.37
O=C(CC(C(=O)N1CCc2ccccc21)n1ccnc1)NCCC1=CCCCC1 (centres undefined)	0.945	-1.26
COC(=O)Nc1ccc(S(=O)(=O)N2CCCC(C(=O)N(C)Cc3ccccc3)C2)cc1 (centres undefined)	0.964	-0.556
c1ccc(Nc2c(-c3c[nH]c4ccccc34)nc3cnccn23)cc1	1.02	0.238
CCC(CC)NC(=O)c1c(-c2ccccc2Cl)noc1C	1.02	0.765
CCCCNC(=O)CN1CCN(Cc2ccc(Cl)cc2)C1=O	1.07	0.949
COc1ccc(-c2noc(CCC(=O)NCCN3CCN(Cc4ccccc4)CC3)n2)cc1	1.06	0.888
O=C(O)c1nccnc1C(=O)Nc1cc(Cl)ccc1Cl	1.04	1.13
CCCC(=O)NC(C)c1nc2ccccc2n1Cc1ccccc1F (centres undefined)	1.04	0.568
CS(=O)(=O)N1CCN(c2nc(-c3ccc(F)cc3)cs2)CC1	0.944	-1.55

3 structures already listed, sorted by number of heavy atoms, highest first.
SMILES	CBX7 inh	CBX7 inh z-score
c1ccc(Nc2c(-c3c[nH]c4ccccc34)nc3cnccn23)cc1	1.02	0.238
CCCCNC(=O)CN1CCN(Cc2ccc(Cl)cc2)C1=O	1.07	0.949
O=C(O)c1nccnc1C(=O)Nc1cc(Cl)ccc1Cl	1.04	1.13

The listing continues:
SMILES	CBX7 inh	CBX7 inh z-score
COCCn1c(SCC(=O)Nc2cccc(C)c2)nnc1-c1c[nH]c2ccccc12	1.01	0.0416
CCn1c(=O)c(=O)n(CC)c2cc(S(=O)(=O)N(C)CC(=O)O)ccc21	1.11	1.79
c1ccc2oc(-c3ccc(NCc4ccc5c(c4)OCO5)cc3)nc2c1	1.01	0.329
Cc1ccccc1-n1c(=O)cc(N2CCc3ccccc3C2)[nH]c1=O	1.05	0.936
Oc1cc(Cc2ccccc2)ccc1CNc1ccc2oc(-c3ccccc3F)nc2c1	1.05	1.34
COc1cc2ccccc2cc1C(=O)Nc1cc(-c2nc3ccccc3o2)ccc1C	1.13	1.32
O=C(O)COc1ccc(-c2cc(C(=O)O)c3ccccc3n2)cc1	0.924	-1.79
CCOC(=O)c1cnc2c(OC)cccc2c1Nc1cc(Cl)ccc1OC	0.975	-0.0286
Cc1ccc(Cl)cc1NC(=O)c1oc2ccc(S(=O)(=O)N3CCCC3)cc2c1C	1.1	1.82
CNc1oc(-c2ccc(F)cc2)nc1S(=O)(=O)c1ccccc1	0.894	-0.458
Cc1cccc(NC(=O)CN(C)S(=O)(=O)c2ccc3c(c2)n(C)c(=O)c(=O)n3C)c1C	1.01	0.123
Cc1ccc(-c2cc(C(F)F)n3ncc(C(=O)NCc4cccnc4)c3n2)cc1	1.03	0.979
O=C(NCCc1ccccc1)c1cc(-c2ccco2)on1	0.964	-0.968
Clc1ccccc1-n1ncnc1-c1cccc(Br)c1	1.08	1.06
Cn1c2ccccc2c2c(C(=O)NCCCN3CCCCCC3)cn(C3CCCC3)c(=O)c21	0.979	-0.596
CCOc1ccc(NC(=O)C2(S(=O)(=O)c3ccc(Cl)cc3)CC2)cc1	1.07	2.59
CC1(C)CC(=O)C2=C(C1)Nc1cc(C(=O)c3ccccc3)ccc1NC2c1ccc(O)cc1 (centres undefined)	0.994	-0.176
COc1ccc(N2Cc3cccc(C(=O)NCc4ccc(F)cc4)c3C2=O)cc1	1.07	2.9
Cc1ccc(Cc2cnc(CN(C)C)c(O)c2)cc1	0.477*	-6.92*
Cc1cc(NC(=O)c2ccc3c(c2)C(=O)N(c2ccc(Cl)cc2)C3=O)no1	1.04	0.593
COc1ccc(-c2nc3ccccc3n2Cc2ccc(F)cc2)cc1	0.93	-1.54
COc1ccc(Cl)cc1C(=O)Nc1c2c(nn1-c1ccc(F)cc1)CSC2	0.999	-0.00943
COc1ccc(N(C)C(=O)Cn2nc(Cc3ccncc3)c3ccccc3c2=O)c(OC)c1	1.05	1.93
Cc1nnc(SCc2nc(C(c3ccccc3)c3ccccc3)no2)n1-c1ccccc1	0.889	-2.53
CCOc1ccc(C(=O)Nc2cccc(-c3nc4cc(C)ccc4o3)c2)cc1Br	1.13	1.34
Cc1cccc(NC(=O)C(Cc2ccccc2)NS(=O)(=O)c2cccs2)c1C (centres undefined)	1.07	2.2
Cc1ccc(S(=O)(=O)c2cn(CC(=O)Nc3ccc(C)cc3C)c3ccc(F)cc3c2=O)cc1	1.08	1.14
COc1ccccc1NC(=O)c1c(NC(=O)COc2ccccc2)sc2c1CCCCC2	0.915	-1.07
Cc1cccc(Nc2nc(-c3cccc4ccccc34)cs2)c1	0.809	-6.71
O=C(Cc1c(O)c2ccccc2[nH]c1=O)NCc1ccncc1	0.905	-1.37

Compounds listed so far with a thiophene ring, fused or not (three):
SMILES	CBX7 inh	CBX7 inh z-score
O=C(Nc1nc(-c2nc3ccccc3s2)cs1)c1sc2ccccc2c1Cl	1.23	2.58
Cc1cccc(NC(=O)C(Cc2ccccc2)NS(=O)(=O)c2cccs2)c1C (centres undefined)	1.07	2.2
COc1ccccc1NC(=O)c1c(NC(=O)COc2ccccc2)sc2c1CCCCC2	0.915	-1.07

(next part)
SMILES	CBX7 inh	CBX7 inh z-score
CCN(CCCNC(=O)CCn1nc(-c2ccc(Cl)cc2)ccc1=O)c1cccc(C)c1	0.891	-2.79
CCOc1ccc(C(=O)Nc2cnn(Cc3ccc(F)cc3)c2)cc1	0.951	-1.6
CCc1ccc(N2CC(C(=O)Nc3cccc(C(F)(F)F)c3)CC2=O)cc1 (centres undefined)	1.05	1.44
C=C(C)Cn1c(C2CC(=O)N(c3cccc(Cl)c3C)C2)nc2ccccc21 (centres undefined)	1	0.0667
CCCCNC(=O)c1sc2ncn(CC(=O)N(CC)CC)c(=O)c2c1C	1.03	1.06
CCOC(=O)c1[nH]c2c(c1Cc1ccccc1)C(=O)CC(c1ccc(OCC)cc1)C2 (centres undefined)	0.7	-1.97
CCOC(=O)C1CCCN(c2c(NCCCN(CC)CC)c(=O)c2=O)C1 (centres undefined)	0.979	-0.471
O=C1CN(C(=O)c2cccc(Br)c2)C(c2ccccc2)c2cc(F)ccc2N1 (centres undefined)	0.921	-2.26
COc1ccc(N2CCN(C(c3cccs3)C(C)NC(=O)C(=O)NCCN(C)C)CC2)cc1 (centres undefined)	0.954	-1.51
CNc1ccccc1-c1nc2ccccc2n(C)c1=O	0.837	-7.86
O=C(CC1C(=O)N(c2ccccc2)C(=O)N1Cc1ccc2c(c1)OCO2)Nc1ccc(F)cc1 (centres undefined)	0.888	-0.486
O=C(NCc1cccs1)C1CCN(S(=O)(=O)c2cccs2)CC1	0.957	-0.785
O=C(COc1ccc(Cl)cc1)Nc1ccc(-c2nc3cc(Cl)ccc3o2)cc1	0.94	-1.03
COc1ccc(C)cc1NC(=O)C1CCCN(S(=O)(=O)c2cccc3cccnc23)C1 (centres undefined)	0.976	-0.82
CC1CCN(C(=O)c2cc(-c3ccc(Cl)cc3)on2)CC1	1.06	0.0855

Record cards (already shown). Order of screens: CBX7 inh | CBX7 inh z-score
CCN(CCCNC(=O)CCn1nc(-c2ccc(Cl)cc2)ccc1=O)c1cccc(C)c1 is entered as 0.891 | -2.79
COc1ccc(N2CCN(C(c3cccs3)C(C)NC(=O)C(=O)NCCN(C)C)CC2)cc1 (centres undefined) is entered as 0.954 | -1.51
CC1CCN(C(=O)c2cc(-c3ccc(Cl)cc3)on2)CC1 is entered as 1.06 | 0.0855

Further entries
SMILES	CBX7 inh	CBX7 inh z-score
COc1ccc(C2=NN(CCC(=O)NCCC(C)C)C(=O)CC2)cc1	1.04	0.675
Cc1cc(C(=O)NC(C)C)n(-c2ccccc2)n1	1.15	2.29
COc1nc(OC)nc(-n2cnc(NC(=O)Nc3ccc(Cl)cc3)n2)n1	0.245*	-0.848*
Oc1ccccc1-c1nc(N2CCCCCC2)c2ccccc2n1	1.02	0.0617
O=C(CC1CCS(=O)(=O)C1)Nc1ccc[nH]c1=O (centres undefined)	0.959	-0.659
Cc1ccc2c(c1)C(c1ccccc1)N(C(=O)c1ccc3c(c1)OCO3)CC(=O)N2 (centres undefined)	1.05	1.2
COc1cc2c(cc1OC)C(c1ccc(C(F)(F)F)cc1)CC(=O)N2 (centres undefined)	1.08	0.79
Cc1noc(C)c1S(=O)(=O)N1CCC(C(=O)O)CC1	1.21	2.76
Cc1nn(C)cc1CN(C)C(=O)c1cc(-c2ccccc2)nc2ccc(Br)cc12	0.996	-0.114
O=C(Cn1c(-c2ccccn2)nc2ccccc21)NCc1ccccc1	0.989	-0.338
COc1cc(OC)cc(-n2nc(C(=O)Nc3ccc(F)cc3)c3ccccc3c2=O)c1	0.995	-0.138
Cc1ccc(C(=O)Nc2nc(-c3ccc(C)cc3)c(-c3ccccc3)s2)cc1	0.997	-0.0583
Cc1nc(NCc2ccc(Cl)cc2)c2c(C)c(C)sc2n1	1.06	0.109
CCOc1ccc(N(CC)C(=O)Cn2nc(Cc3ccncc3)c3ccccc3c2=O)cc1	0.985	-0.558
Cn1c(=O)n(CC(=O)N2CCN(Cc3ccc4c(c3)OCO4)CC2)c(=O)c2ccccc21	1.03	0.44
Cc1cccc(NC(=O)c2c(-c3ccccc3Cl)noc2C)c1	1.17	3.33
O=C(NC1CC1)c1ccc2c(c1)N(Cc1cccc(Cl)c1)C(=O)c1ccccc1S2	1.06	0.656
O=C(CSc1oc(-c2cccs2)nc1S(=O)(=O)c1ccccc1)NCC1CCCO1 (centres undefined)	0.915	-0.707
Cc1cc(C)cc(NS(=O)(=O)c2ccc3[nH]cc(C(=O)N4CCCC4)c(=O)c3c2)c1	0.904	-0.414
CCCCc1nc2ccccc2n1CCCOc1ccc(Cl)cc1	1.08	3.42
Cc1onc(-c2ccccc2Cl)c1C(=O)Nc1ccc(C(=O)O)cc1	1.01	0.164
C/C(=C\c1ccccc1)c1nc2ccc(Cl)cn2c1Nc1ccc(Cl)cc1	1.01	0.161
CC(c1ccccc1)c1nnc(NC(=O)c2ccc(Cl)cc2)s1 (centres undefined)	1.09	0.972
CCCCNS(=O)(=O)c1ccc2nc(-c3cccs3)cc(C(=O)NCCOC)c2c1	0.998	-0.0541
CCc1cccc(NC(=O)C(CC(C)C)NS(=O)(=O)c2ccc3nc(C)sc3c2)c1 (centres undefined)	0.994	-0.109
O=C(NCc1ccccc1Cl)c1ccc2c(c1)N(Cc1ccc(F)cc1)C(=O)c1ccccc1S2=O (centres undefined)	0.53	-13
COCC(C)NC(=O)c1cc(-c2ccc(Cl)c(Cl)c2)on1 (centres undefined)	1.02	0.54
CCCCN(CCCNC(=O)CN1C(=O)C(CC)Oc2ccc(C)cc21)c1ccccc1 (centres undefined)	0.998	-0.12
Cc1ccc(OCc2nc(-c3ccccc3Cl)no2)cc1C	1.63	0.705
O=C(NC1CCCCC1)c1nn2c(c1Br)NC(c1cccs1)CC2C(F)(F)F (centres undefined)	1.01	0.474
CCN(CC)C(=O)C1CCCN(c2ncnc3c2sc(=S)n3-c2ccccc2)C1 (centres undefined)	1.31	0.633
CCOC(=O)c1c(CSc2ccccc2)n(C2CCCCC2)c2cc(Br)c(O)cc12	0.898	-1
O=C(NCCCN1CCc2ccccc2C1)c1ccc2c(c1)ncn2C1CCCC1	0.76	-2.76
CCCCn1c(CCCNC(=O)CC)nc2ccccc21	1.1	1.05
Cc1c(C(=O)Nc2ccc(C(F)(F)F)cc2)sc2ncn(CC(=O)N3CCCCC3C)c(=O)c12 (centres undefined)	1.01	0.211
CN(C)CCCNC(=O)c1cc2c(n(-c3ccc(Cl)cc3)c1=O)CCCC2=O	1.03	0.286
Cc1onc(-c2c(Cl)cccc2Cl)c1C(=O)Nc1cccc(F)c1	1.05	2.17
Cc1ccc(C)c(NC(=O)CSc2nccn2-c2ccc(F)cc2)c1	0.962	-0.294
Cc1ccc2oc(-c3cccc(NC(=O)c4ccc(Br)cc4)c3C)nc2c1	1.05	1.13
O=C(NO)C12CC3CC(CC(C3)C1)C2	0.925	-2.08
CC1CCN(c2nc(-c3ccncc3)nc3ccccc23)CC1	1.01	0.0858
CCOc1ccc(Nc2nc(-c3c(C)nc4ncccn34)cs2)cc1	0.882&0.506	-2.2&-0.555
CC1CCN(CCCNC(=O)Cn2ncc3c2-c2ccccc2OC3)CC1	1.07	1.94
CCCCNC(=O)CSc1nc2nc(C)c(Cc3ccc(C)cc3)c(C)n2n1	1.12	1.12
COc1ccc(-c2cc(C(=O)Nc3c(C)nn(Cc4ccc(F)cc4)c3C)no2)cc1	1.15	0.887
CC(O)c1nc2ccccc2n1CCOc1ccccc1 (centres undefined)	1.27	2.9
CCC(Cc1ccccc1)NC(=O)c1cn(CC)c2nc(C)ccc2c1=O (centres undefined)	1.06	0.666
CCn1c(SCC(=O)Nc2ccc(C)cc2)nnc1-c1c[nH]c2ccccc12	1.13	0.837
O=C(NCCCN1CCCCC1)C1C2C=CC3(CN(Cc4cccs4)C(=O)C13)O2 (centres undefined)	1.02	1.11
FC(F)(F)c1ccc(-c2nnc3ccc4ccccc4n23)cc1	0.836	-2.6
O=C(NCCCN1CCCCC1)c1cc(=O)[nH]c2ccc(S(=O)(=O)N3CCCCCC3)cc12	1.13	1.5
c1ccc(-c2cnc3nonc3n2)cc1	0.752	-3.79
CCn1c(=O)c(=O)n(CC)c2cc(S(=O)(=O)Nc3cccc(OC)c3)ccc21	1.02	0.762
Cc1oc(-c2ccccc2F)nc1C(=O)NCCc1ccc(Cl)cc1	1.01	0.369
Cc1ccc(CNC(=O)CCc2nc3ccccc3n(Cc3cccc(Cl)c3)c2=O)cc1	1.09	0.978
Cc1ccc(OCCCn2c(CCCO)nc3ccccc32)cc1	0.874	-0.545
CC1(C)CC(=O)N(CC(=O)NCCN2CCOCC2)c2ccccc2S1	1.17	4.92

This is a subset, so the mix of outcomes need not match the whole.
